DUX4 inh: inhibitors of DUX4-driven ZSCAN4 reporter expression, primary screen, 293T cells, Gaussia and Italica luciferase | 293T-iDUX4 ZSCAN4-Gaussia luciferase reporter, 24 h; stronger effect = lower value | 37,000 compounds, 0.8% hits | AID 1224904, 2016 | activity change, negative = inhibition, % (no concentration beside the values);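 active means -10% or lower and over 25 points stronger than a control reporter; inconclusive means -10% or lower with a smaller gap; inactive means above -10%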;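 further: 0% = median of neutral control wells and -100% = median of positive control wells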
DUX4 inh difference: recorded beside DUX4 inh, whose call it bears; Gaussia minus Italica difference, %; measured here: selective DUX4 reporter inhibition;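 worked out from the two reporters; negative = selective loss of the DUX4 reporter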
DUX4 inh control: second read-out of DUX4 inh, no call of its own (marks repeat the call); activity change, negative = inhibition, %; measured here: Italica tet-on control reporter;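 0 = neutral control and -100 = positive control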
An asterisk follows results filed as active; ? = inconclusive; . = not tested or not shown; & = joins results of further samples. Not all compounds are listed; the hit share may differ from the screen's.

SMILES	DUX4 inh	DUX4 inh difference	DUX4 inh control
C[C@@H]1CN([C@@H](C)CO)C(=O)c2cccc(NC(=O)Nc3ccc(C(F)(F)F)cc3)c2O[C@@H]1CN(C)Cc1ccc2c(c1)OCO2	4.6	4.1	0.5
COc1ccccc1CN(C)C[C@@H]1OCc2ccccc2-c2ccccc2C(=O)N([C@@H](C)CO)C[C@@H]1C	3.7	1.4	2.3
CO[C@@H]1CN(C)C(=O)c2ccc(NC(=O)C3CCOCC3)cc2OC[C@@H](C)N(C(=O)c2ccccc2)C[C@H]1C	3.9	2.2	1.7
O=C(Nc1ccccc1F)N[C@H]1CC[C@@H](CCNC(=O)C2CC2)O[C@@H]1CO	5.2	2.9	2.3
O=C(c1ccccc1)N1CC2(C1)[C@H](c1ccccc1)[C@@H](CO)N2Cc1cccnc1	-2.3	-3.2	0.8
CC(C)NC(=O)N1CC[C@H]2[C@@H]1c1cc(C#Cc3cccnc3)ccc1N(C)[C@H]2CO	4.5	24.2	-19.7
COc1cccc(NC(=O)N2C[C@@H](O)COC[C@H]3O[C@H](CC(=O)NCc4ccccc4F)CC[C@@H]32)c1	14.2	4.7	9.5
N#C[C@H]1[C@@H](c2ccccc2C2=CCCCC2)[C@H](CO)N1C(=O)CN1CCOCC1	10.5	8.7	1.8
CNC[C@H]1Oc2ccc(NC(=O)C3CCCCC3)cc2C(=O)N([C@H](C)CO)C[C@@H]1C	2.1	-0.5	2.6
COc1ccccc1S(=O)(=O)N1CC[C@@H]2[C@H]1c1cc(-c3cccc(C#N)c3)ccc1N(C)[C@H]2CO	?	.	.
CN(C)C(=O)[C@@H]1[C@@H](CO)[C@@H]2Cn3c(ccc(C4=CCCC4)c3=O)[C@H]1N2C(=O)c1ccccc1	2.2	4.1	-1.8
CCS(=O)(=O)Nc1ccc2c(c1)C(=O)N(C)[C@@H]1CC[C@@H](CC(=O)NCCOC)O[C@@H]1CO2	2.5	2.7	-0.2
CNC[C@@H]1OCCCC[C@@H](C)Oc2ccc(NC(=O)Cc3ccccc3)cc2C(=O)N([C@@H](C)CO)C[C@H]1C	-3.4	-3.1	-0.3
CO[C@@H]1CN(C)C(=O)c2ccc(NC(=O)C3CCCC3)cc2OC[C@@H](C)N(CCC(F)(F)F)C[C@H]1C	-1.3	-3.3	2.0
O=C(C[C@H]1CC[C@H]2[C@@H](COC[C@H](O)CN2S(=O)(=O)c2ccc(F)cc2)O1)NCc1ccc(Cl)c(Cl)c1	?	.	.
CCCN1[C@@H]2c3cccc(=O)n3C[C@H]1[C@H](CO)[C@H]2C(=O)NC1Cc2ccccc2C1	-1.1	0.4	-1.5
COc1ccc(NC(=O)Nc2ccc3c(c2)C(=O)N([C@H](C)CO)C[C@@H](C)[C@H](CN(C)S(=O)(=O)c2c(C)noc2C)OCCCC[C@@H](C)O3)cc1	?	.	.
Cc1ccccc1-c1ccc(C2[C@@H]3CN(C(=O)C4CCOCC4)C[C@H]2N3)cc1 (stereo partly drawn)	0.6&-5.6	0.6&-16.6	0.1&10.9
C[C@@H]1CN([C@@H](C)CO)C(=O)c2cccc(NC(=O)C3CCOCC3)c2O[C@@H]1CN(C)Cc1ccncc1	1.2	-7.5	8.7
CCN(C[C@H]1[C@H](c2ccccc2)[C@@H](CO)N1C(C)=O)C(=O)NC1CCCC1	-5.0	-0.8	-4.2
N#C[C@H]1[C@@H](c2ccc(C3=CCCC3)cc2)[C@H](CO)N1C(=O)c1cccc(F)c1	-0.9	1.6	-2.5
CC(C)(C)[S@@](=O)N1Cc2cc(C(=O)N[C@@H]3CCN(Cc4ccccc4)C3)nc(-c3cccc(-c4cccnc4)c3)c2[C@H]1CCO	-1.6	-3.3	1.7
CCCC#Cc1cnc2c(c1)C(=O)N([C@H](C)CO)C[C@@H](C)[C@H](CN(C)C(=O)Cc1ccccc1)O2	1.6	1.4	0.2
COc1ccc(-c2ccc3c(c2)[C@@H]2[C@@H](CCN2S(=O)(=O)C2=NC(C)C=N2)[C@H](CO)N3C)cc1 (stereo partly drawn)	23.8	14.2	9.6
CC(=O)N(C)C[C@H]1[C@@H](c2ccc(-c3ccc(F)cc3)cc2)[C@@H](CO)N1C(C)=O	6.2	4.0	2.2
CN(C)CC#Cc1ccc([C@H]2[C@H](CO)N3C(=O)CN(C(=O)Cc4cccnc4)C[C@@H]23)cc1	9.3	9.2	0.0
COC(=O)C[C@@H]1CC[C@H]2[C@@H](COC[C@H](O)CN2CCC(F)(F)F)O1	3.3	4.9	-1.7
O=C(C[C@H]1C=C[C@H](NC(=O)CCN2CCCCC2)[C@H](CO)O1)Nc1nccs1	1.4	1.1	0.3
C[C@H](CO)N1C[C@H](C)[C@@H](CN(C)S(=O)(=O)c2ccc(-n3cccn3)cc2)OCc2cn(nn2)CCCC1=O	9.4	5.3	4.1
CCS(=O)(=O)N1CC(=O)N2[C@H](CO)[C@@H](c3ccc(C#CC4CCCCC4)cc3)[C@H]2C1	0.0	-13.9	13.8
COc1ccc(CN2CC3(CCN(C(=O)C4CCC4)CC3)c3c(n(C)c4cc(OC)ccc34)[C@@H]2CO)cc1	?	.	.
COc1cccc(NC(=O)N(C)C[C@@H]2Oc3ncc(C#Cc4cccnc4)cc3C(=O)N([C@@H](C)CO)C[C@@H]2C)c1	2.3	-2.0	4.4
C[C@@H]1CN([C@@H](C)CO)C(=O)c2cc(/C=C/c3ccccc3)cnc2O[C@H]1CN(C)S(=O)(=O)c1ccccc1F	0.4	-2.7	3.2
O=C(c1ccc(F)cc1)N1CC(=O)N2[C@@H](CO)[C@@H](c3ccc(C#CC4CCCCC4)cc3)[C@@H]2C1	?	.	.
O=C(C[C@H]1CC[C@@H]2[C@H](COC[C@@H](O)CN2C(=O)Nc2ccc(C(F)(F)F)cc2)O1)NCC1CCCCC1	?	.	.
O=C(C[C@@H]1CC[C@@H](NS(=O)(=O)c2cccc(F)c2)[C@H](CO)O1)NCc1ccc2c(c1)OCO2	-0.4	-4.1	3.7
COc1cccc(NC(=O)C[C@H]2CC[C@@H]3[C@@H](COc4ccc(NC(=O)C5CC5)cc4C(=O)N3C)O2)c1	0.0	-3.2	3.2
CN1c2ccc(C#Cc3cccnc3)cc2[C@@H]2[C@@H](CCN2C(=O)c2cccc(F)c2)[C@@H]1CO	?	.	.
COc1ccc2c3c(n(C)c2c1)[C@H](CO)N(C(=O)Cc1ccccc1)CC31CCN(C(C)=O)CC1	15.7	16.2	-0.5
COc1ccccc1-c1ccc([C@H]2[C@@H](CO)N3CCCCN(C(=O)CN4CCOCC4)C[C@H]23)cc1	16.6	-2.8	19.4
CCNC(=O)[C@@H]1[C@@H](CO)[C@@H]2Cn3c(ccc(C4=CCCCC4)c3=O)[C@H]1N2CCC(F)(F)F	-2.3	-6.5	4.2
COc1ccc(CN2C[C@@H](O)COC[C@H]3O[C@H](CC(=O)NCc4ccccc4Cl)CC[C@@H]32)cc1	-1.0	5.9	-6.9
CCCN1[C@@H]2c3ccc(-c4ccccc4)c(=O)n3C[C@@H]2[C@@H](CO)[C@@H]1C(=O)NCC1CC1	-4.7	-3.5	-1.1
C[C@@H]1CN([C@H](C)CO)C(=O)CCCn2nncc2CO[C@H]1CN(C)C(=O)Nc1ccc(N2CCCCC2)cc1	1.7	3.7	-2.0
CO[C@@H]1CN(C)C(=O)c2ccc(NS(=O)(=O)CC(F)(F)F)cc2OC[C@@H](C)N(Cc2nccs2)C[C@H]1C	-1.7	-7.2	5.6
CCCNC(=O)N1C[C@@H](O)COC[C@H]2O[C@@H](CC(=O)N3CCN(C)CC3)CC[C@@H]21	2.9	2.2	0.7
C/C=C/c1ccc([C@@H]2[C@@H](CO)N3CCCCN(C(=O)Nc4cc(F)ccc4F)C[C@@H]23)cc1	-12.5*	-26.6*	14.1*
CC(C)NC(=O)N[C@H]1C=C[C@H](CC(=O)NCCCN(C)C)O[C@H]1CO	6.3	7.4	-1.1

Arranged by the number under DUX4 inh control (descending): some entries from above.
SMILES	DUX4 inh	DUX4 inh difference	DUX4 inh control
COc1ccccc1-c1ccc([C@H]2[C@@H](CO)N3CCCCN(C(=O)CN4CCOCC4)C[C@H]23)cc1	16.6	-2.8	19.4
CO[C@@H]1CN(C)C(=O)c2ccc(NS(=O)(=O)CC(F)(F)F)cc2OC[C@@H](C)N(Cc2nccs2)C[C@H]1C	-1.7	-7.2	5.6
CCNC(=O)[C@@H]1[C@@H](CO)[C@@H]2Cn3c(ccc(C4=CCCCC4)c3=O)[C@H]1N2CCC(F)(F)F	-2.3	-6.5	4.2
CCCN1[C@@H]2c3ccc(-c4ccccc4)c(=O)n3C[C@@H]2[C@@H](CO)[C@@H]1C(=O)NCC1CC1	-4.7	-3.5	-1.1

Later entries:
SMILES	DUX4 inh	DUX4 inh difference	DUX4 inh control
COc1ccc2c3c([nH]c2c1)[C@H](CO)N(C(=O)Nc1ccc(F)cc1)CC31CCN(C(=O)Nc2ccc3c(c2)OCO3)CC1	?	.	.
CCC(=O)N1CC(=O)N2[C@H](CO)[C@@H](c3ccc(C#CCC(C)C)cc3)[C@@H]2C1	0.3	-5.6	5.9
CN(C)C(=O)C[C@H]1CC[C@@H]2[C@H](COC[C@H](O)CN2Cc2nccs2)O1	12.5	8.9	3.6
O=C(C[C@H]1CC[C@@H]2[C@H](COC[C@H](O)CN2Cc2cccc(Cl)c2)O1)N1CCCCC1	6.0	-5.1	11.0
CCN1[C@@H]2c3ccc(-c4ccc(OC)cc4)c(=O)n3C[C@@H]2[C@@H](CO)[C@@H]1C(=O)NCCN1CCCCC1	-1.6	1.5	-3.1
CCCNC(=O)N1C[C@@H](C)[C@@H](OC)CN(C)C(=O)c2ccc(NC(=O)CC)cc2OC[C@H]1C	1.3	-7.7	9.0
CN1CCN(C(=O)C[C@H]2CC[C@H]3[C@@H](COC[C@@H](O)CN3S(=O)(=O)c3cccc(Cl)c3)O2)CC1	10.7	1.9	8.8
C[C@@H]1CCCCO[C@@H](CN(C)C(=O)c2ccncc2)[C@H](C)CN([C@@H](C)CO)C(=O)c2cc(NS(=O)(=O)c3cccs3)ccc2O1	-6.0	-5.0	-1.0
CC(C)NC(=O)N(C)C[C@@H]1OCc2ccccc2-c2ccccc2C(=O)N([C@@H](C)CO)C[C@@H]1C	15.2	16.7	-1.5
CCCC#Cc1ccc([C@@H]2[C@H]3CN(C(=O)c4cccc(F)c4)CC(=O)N3[C@H]2CO)cc1	-7.1	2.5	-9.6
O=C1C[C@@H](c2ccccc2)C(=O)N[C@H](c2ccc(F)cc2)C/C=C\CCN1	-1.8	-2.4	0.6
COc1ccc2c3c(n(C)c2c1)[C@@H](CO)N(C(=O)c1cnccn1)CC31CCN(C)CC1	0.3	1.8	-1.5

Two entries from above, with two lines to a compound.
Sequence of screens: DUX4 inh, DUX4 inh difference, DUX4 inh control
> CCCN1[C@@H]2c3cccc(=O)n3C[C@H]1[C@H](CO)[C@H]2C(=O)NC1Cc2ccccc2C1
→ -1.1, 0.4, -1.5
> COc1ccc(NC(=O)Nc2ccc3c(c2)C(=O)N([C@H](C)CO)C[C@@H](C)[C@H](CN(C)S(=O)(=O)c2c(C)noc2C)OCCCC[C@@H](C)O3)cc1
→ ?, ., .

Other compounds follow:
SMILES	DUX4 inh	DUX4 inh difference	DUX4 inh control
CNC[C@H]1Oc2cc(Br)ccc2S(=O)(=O)N([C@@H](C)CO)C[C@@H]1C	-4.9	-7.1	2.3
COc1ccc2c3c(n(C)c2c1)[C@H](CO)NCC31CCN(Cc2ccncc2)CC1	6.5	8.7	-2.2
O=C(C[C@H]1CC[C@@H]2[C@H](COC[C@H](O)CN2Cc2cccc(-c3ccncc3)c2)O1)N1CCN(c2ccccc2)CC1	?	.	.
CO[C@H]1CN(C)C(=O)c2cc(NC(=O)Nc3c(C)noc3C)ccc2OC[C@H](C)NC[C@H]1C	7.1	3.9	3.3
C[C@H](O)C#Cc1ccc([C@H]2[C@@H](CO)N3CCCCN(C(=O)c4ccncc4)C[C@@H]23)cc1	23.1	16.7	6.3
O=C(c1ccccn1)N1CC(=O)N2[C@@H](CO)[C@H](c3ccc(-c4cccc(F)c4)cc3)[C@@H]2C1	8.7	-0.6	9.3
O=C(NCCc1ccncc1)[C@H]1[C@H](CO)[C@H]2Cn3c(ccc(-c4ccncc4)c3=O)[C@H]2N1C(=O)C1CC1	4.1	0.2	3.8
O=C(NC1CCCC1)N1CCCCN2[C@H](CO)[C@@H](c3ccc(-c4cccnc4)cc3)[C@H]2C1	13.5	19.9	-6.4
O=C(NCC(F)(F)F)[C@H]1[C@H](CO)[C@H]2Cn3c(cccc3=O)[C@@H]1N2CC1CC1	1.4	-0.2	1.6
O=C([C@@H]1[C@@H](CO)[C@@H]2Cn3c(ccc(-c4ccccc4)c3=O)[C@H]1N2Cc1cccnc1)N1CCOCC1	5.2	0.6	4.7
CC(C)C#Cc1ccc([C@@H]2[C@@H](CO)N3C(=O)CN(C(=O)Cc4ccccc4)C[C@@H]23)cc1	7.8	14.7	-6.8
CN1c2ccc(-c3cccc(C#N)c3)cc2[C@@H]2[C@@H](CCN2C(=O)Nc2cc(F)ccc2F)[C@@H]1CO	?	.	.
O=C(C[C@@H]1C=C[C@@H](NC(=O)CN2CCOCC2)[C@@H](CO)O1)NCc1cccc(F)c1	2.5	7.1	-4.6
CN1C(=O)c2cc(NC(=O)c3cccc(F)c3)ccc2OC[C@@H]2O[C@@H](CC(=O)NCc3ccccc3Cl)CC[C@@H]21	8.6	-0.6	9.2
C[C@H]1CCCCO[C@H](CN(C)C(=O)c2ccncc2)[C@@H](C)CN([C@@H](C)CO)C(=O)c2cc(NC(=O)CCC(F)(F)F)ccc2O1	-0.5	-0.9	0.3
COc1cccc(C(=O)Nc2ccc3c(c2)C(=O)N(C)[C@@H]2CC[C@H](CC(=O)NCc4ccc(F)cc4)O[C@H]2CO3)c1	-2.1	-1.4	-0.7
C[C@H](CO)N1C[C@H](C)[C@@H](CN(C)S(=O)(=O)c2ccc(F)cc2)OCc2ccccc2-c2ccccc2C1=O	5.1	3.0	2.0
CCNC(=O)Nc1ccc2c(c1)C(=O)N(C)[C@H]1CC[C@H](CC(=O)Nc3ccccc3F)O[C@@H]1CO2	-0.7	-1.5	0.8

High-throughput results deposited in PubChem by Broad Institute.
